High-throughput results as filed in PubChem.
MbtI inh: MbtI salicylate synthase inhibitors, primary screen, biochemical, fluorescence intensity; hit rate 0.89% among 100,000; AID 493033, 2011; inhibition, %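 (about 17 µg/mL by stock and volumes)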; purified MbtI enzyme, fluorescence intensity read-out;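 active means above 50% in both replicates, above 80% if mildly self-fluorescent; inactive means the rest, strongly fluorescent compounds included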;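 further: 0% = mean of negative and 100% = mean of positive controls; one replicate is shown; some compounds called inactive have numbers as strong as hits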
Mtb MenB inh: M. tuberculosis MenB inhibitors, primary screen, biochemical, absorbance; MenB enzyme assay, absorbance read-out; some hits fall short of the stated cut; inhibition, %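 (about 12 µg/mL by stock and volumes)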; hit rate 0.43% among 100,000; AID 540299, 2011;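 active means mean of two replicates above 30%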;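 further: 0% = no compound and 100% = wells with inactive enzyme; the first replicate is given; strong numbers were not always called active; inactives centre near -10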
Target sequence (P9WNP5 whole entry, looked up): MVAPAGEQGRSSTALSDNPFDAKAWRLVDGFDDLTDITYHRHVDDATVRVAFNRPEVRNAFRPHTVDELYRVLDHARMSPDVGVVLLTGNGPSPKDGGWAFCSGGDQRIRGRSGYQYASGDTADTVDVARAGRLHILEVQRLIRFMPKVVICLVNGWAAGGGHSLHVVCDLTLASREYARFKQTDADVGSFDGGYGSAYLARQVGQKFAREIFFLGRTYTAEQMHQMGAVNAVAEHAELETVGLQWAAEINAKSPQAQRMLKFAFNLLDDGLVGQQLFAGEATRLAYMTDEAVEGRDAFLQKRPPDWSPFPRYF
Polio RdRp inh: poliovirus RdRp elongation inhibitors, primary screen, biochemical, fluorescence polarization, total intensity | Genome polyprotein (Poliovirus type 1 (strain Mahoney)), P03300 | poliovirus polymerase elongation; stronger effect = lower value | % elongation, % (compound at 16.7 µg/mL) | hit rate 0.66% among 150,000 | AID 588519, 2011; in the data active means % elongation below about 90%; further: some results filed as inactive read as strong as hits
Target sequence (P03300 1749-2209 limits assumed): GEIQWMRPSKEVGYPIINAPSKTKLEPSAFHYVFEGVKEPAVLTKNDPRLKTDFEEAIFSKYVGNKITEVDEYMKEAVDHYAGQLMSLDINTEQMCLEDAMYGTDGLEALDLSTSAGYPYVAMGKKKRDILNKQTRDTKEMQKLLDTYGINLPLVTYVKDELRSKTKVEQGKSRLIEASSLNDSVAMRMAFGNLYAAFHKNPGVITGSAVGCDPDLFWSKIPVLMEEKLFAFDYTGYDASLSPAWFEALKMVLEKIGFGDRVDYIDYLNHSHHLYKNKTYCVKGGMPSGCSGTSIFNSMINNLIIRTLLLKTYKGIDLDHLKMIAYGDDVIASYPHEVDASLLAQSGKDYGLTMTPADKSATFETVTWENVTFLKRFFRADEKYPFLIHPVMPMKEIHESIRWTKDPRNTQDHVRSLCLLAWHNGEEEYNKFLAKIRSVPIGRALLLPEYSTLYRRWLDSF
Polio RdRp inh intensity: further read-out of Polio RdRp inh, marked with its call; % elongation; measured here: total intensity read-out; formula for this scale not given here;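 total fluorescence in place of polarization; lower means less elongation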
* hit, by the source's call; . = no result given; & = joins results of further samples.

Under each structure: MbtI inh	Mtb MenB inh	Polio RdRp inh intensity	Polio RdRp inh
- COc1cc2c(C(=O)O)c(C)oc2cc1Br
→ .	-5	101	103
- OCc1c(Cl)nc2sccn12
→ -10	.	103	103
- O=C(COc1ccc(Br)cc1)N(CCO)CCO
→ .	-14	113	105
- Brc1cc2c(cc1/C=N/c1c(-c3ccco3)nc3ccccn13)OCO2
→ .	-41	115	100
- CCOC(=O)c1ccc(NC(=O)c2c(NCc3ccc(C)o3)sc3c2CCCC3)cc1
→ -6	-34	107	103
- CC1CCC/C(=C\c2ccc3c(c2)OCO3)C1=O (configuration not stated)
→ .	-12	109	104
- O=C(Nc1ccc(-c2nnn(CC(=O)N3CCN(C(=O)c4ccco4)CC3)n2)cc1)c1ccccc1F
→ 3	-33	99	101
- COc1cc2c(cc1OC)C(C)N(S(=O)(=O)c1ccc(C)cc1)CC2 (configuration not stated)
→ 13	-1	104	99
- OC(COc1ccc(Cl)cc1)(c1nnc(-c2ccccc2)o1)c1nnc(-c2ccccc2)o1
→ -1	4	111	103
- COC(=O)c1ccc(CSc2nc3c(cnn3-c3ccc(Cl)cc3)c(=O)[nH]2)o1
→ -3	-24	104	99

A section of the results above:
Under each structure: MbtI inh	Mtb MenB inh	Polio RdRp inh intensity	Polio RdRp inh
- OC(COc1ccc(Cl)cc1)(c1nnc(-c2ccccc2)o1)c1nnc(-c2ccccc2)o1
→ -1	4	111	103
- COC(=O)c1ccc(CSc2nc3c(cnn3-c3ccc(Cl)cc3)c(=O)[nH]2)o1
→ -3	-24	104	99

New compounds follow:
Under each structure: MbtI inh	Mtb MenB inh	Polio RdRp inh intensity	Polio RdRp inh
- COc1ccc(C2C=C(c3ccc(F)cc3)NC(=S)N2)cc1OC (configuration not stated)
→ 69	-48	106	104
- Cc1ccc(N2C(=O)CC(N3CC4(C)CC3CC(C)(C)C4)C2=O)cc1 (configuration not stated)
→ -3	-52	103	103
- O=S(=O)(c1ccccc1)N1N=C(c2ccccc2)CC1c1ccco1 (configuration not stated)
→ 7	-7	107	103
- O=C(NCC(=O)N1CCN(C2CCS(=O)(=O)C2)CC1)c1sc2ccccc2c1Cl (configuration not stated)
→ -11	-12	103	99
- O=c1[nH]c2ccccc2n1C1CCCCC1
→ 13	-12	.	.
- Cc1nc(N2CCN(C)CC2)sc1-c1ccccc1
→ 5	-23	87	96
- Cc1occc1-c1nnc(SCC(=O)N(Cc2ccccc2)C(C)(C)C)n1C
→ -2	-17	107	101
- CCOCCCNc1nc2ccccc2nc1NS(=O)(=O)c1cccc2nsnc12
→ -9	-21	.	.
- CCNc1nc(OC)nc(Oc2ccc(/C=N/O)cc2)n1
→ 2	-4	100	102
- CC(=O)Nc1nnc(C(C)C)s1
→ -21	-7	101	102
- C=CCc1c(C)nc(-c2ccccc2)nc1NN
→ 4	-12	101	101
- CC(C)C(=O)NCCc1nc2ccccc2[nH]1
→ .	-2	111	104
- COc1ccc(-c2nc(NCC3CCCO3)c3ccccc3n2)cc1 (configuration not stated)
→ 35	0	105	99
- COc1cccc(NC(=O)c2ccc(CN3CCN(c4ccccc4)CC3)cc2)c1
→ 7	13	101	100
- CCCCCCCc1c(C)[nH][nH]c1=O
→ 1	-10	104	103
- Cc1c(OC(C)C)ccc2c3c(c(=O)oc12)CCC3
→ 199	-3	100	95
- O=C(NCCN1CCOCC1)C1(c2cccs2)CCOCC1
→ 7	-13	108	101
- COCCN=C1NN=C(c2ccc(C(C)(C)C)cc2)CS1
→ 17	-30	104	107
- OCCNC1CCCc2c1[nH]c1ccc(Br)cc21 (configuration not stated)
→ -1	-29	103	103
- COc1cc(C2C(C#N)=C(N)OC3=C2C(=O)CC(C)(C)C3)ccc1OCC(=O)Nc1ccccc1C (configuration not stated)
→ .	-28	114	106
- c1ccc2[nH]c(CSc3nc4ccccc4o3)nc2c1
→ -6	.	104	103
- CCOC(=O)CSc1nncc(=O)[nH]1
→ 1	12	96	107
- CCN(CC)C(=S)SC1=CCS(=O)(=O)C1
→ 14	1	104	101
- O=C1C=C/C(=N/N(Cc2ccccc2)c2ccccc2)O1
→ 90*	1	106	101
- Cc1ccc(N(CC(N)=O)C2SC(=O)N(c3ccccc3)C2=O)cc1 (configuration not stated)
→ 33	-1	103	99
- Nc1nnc2cc(C(=O)c3cc(F)ccc3O)cnn12
→ 3	-15	96	96
- Nc1nc(COC(=O)/C=C/c2cc(Cl)c3c(c2)OCCO3)nc(Nc2ccccc2)n1
→ 8	-31	105	106
- CC(C)Oc1ccc(C2CC(=O)NNC2=O)cc1 (configuration not stated)
→ -3	-2	98	102
- O=C(O)C1Cc2ccccc2CN1S(=O)(=O)/C=C/c1ccccc1 (configuration not stated)
→ -2	-9	112	101
- Clc1ccc(C2=CC(c3ccco3)n3ncnc3N2)cc1 (configuration not stated)
→ 76	-2	113	99
- CCC(=O)Nc1ccc(C(=O)c2ccccc2)cc1
→ .	-10	105	105
- Nc1ccc2c(c1)COC2=O
→ 16	-6	103	102
- CC1=C(C)CS(=O)N(c2ccc(S(N)(=O)=O)cc2)C1 (configuration not stated)
→ 38	23	95	93
- CC(C)=CCNc1ncnc2nc[nH]c12
→ .	-4	103	100
- C=CCN1C(=O)C(O)(c2c[nH]c3ccccc23)c2cc(Cl)ccc21 (configuration not stated)
→ -16	-1	103	102
- O=C(NC(SC1=NCCS1)C(=O)c1ccccc1)c1ccccc1 (configuration not stated)
→ .	-5	94	100
- COc1ccc(/C=N/N=C2/NC(=O)/C(=C(/C)c3nonc3C)S2)cc1OC
→ 0	-1	99	101
- COc1ccc(C(=O)NCCOc2cc(C)cc(C)c2)cc1OC
→ .	-3	107	107
- Cc1cc2c(CCl)cc(=O)oc2cc1C(C)C
→ -7	.	98	102
- O=S(=O)(Nc1ccccc1Cl)c1ccc2nc(-c3ccccc3)[nH]c2c1
→ -8	-15	108	104

Complete entries, looked up by structure:
`CCNc1nc(OC)nc(Oc2ccc(/C=N/O)cc2)n1` is listed as MbtI inh: 2; Mtb MenB inh: -4; Polio RdRp inh intensity: 100; Polio RdRp inh: 102
`COc1cc2c(C(=O)O)c(C)oc2cc1Br` is listed as MbtI inh: .; Mtb MenB inh: -5; Polio RdRp inh intensity: 101; Polio RdRp inh: 103

The listing continues:
Under each structure: MbtI inh	Mtb MenB inh	Polio RdRp inh intensity	Polio RdRp inh
- Cc1cccc(NS(=O)(=O)N(C)C)c1
→ -9&-10	.	100	103
- CNC(=O)c1ccc2nc(N)sc2c1
→ -2	-28	100	101
- O=C1CNC(=O)c2c(nc3n2CCC3)N1
→ 15	34*	103	101
- O=C1CCN(C(=S)NCCc2ccccc2)CC1
→ 15	8	98	104
- O=c1c2c3nc4ccccc4nc3n(CCN3CCOCC3)c2ncn1CCN1CCOCC1
→ -11	-17	95	103
- COc1ccc(C2Sc3ccccc3N(CCN(C)C)C(=O)C2OC(C)=O)cc1 (configuration not stated)
→ -15	6	103	99
- COc1cccc(OC)c1C(=O)ON=C1C=CC(=O)C=C1
→ 83*	-24	105	103
- C/C(=N\O)C1(C)N(O)C(C)(C)C(c2ccc(C)cc2)=[N+]1[O-] (configuration not stated)
→ -4	-18	104	99
- Cc1cc(C)cc(NC(=O)CSc2nc(-c3ccccc3)nn2C(=O)c2ccco2)c1
→ -10	-56	98	103
- N/C(=N\C1=NC(C(F)(F)F)(C(F)(F)F)N=C(c2cccnc2)O1)Nc1ccccc1
→ -2	-9	106	100
- COCCNC(=O)Cc1csc2nc(-c3ccc(Cl)cc3)cn12
→ -2	6	103	101
- CCOCCC(=O)Nc1ccc(OC)cc1
→ -7	-45	103	100
- CNC(=S)c1sc2ccccc2c1C
→ -6	-28	108	107
- CC1(C)C(=O)N(c2ccccc2F)C(=O)c2ccccc21
→ -9	0	103	100
- O=c1c2ccccc2nc(SCc2cccc(F)c2)n1CC1CCCO1 (configuration not stated)
→ -8	-23	103	103
- Cc1ccc(-c2csc(C3=C(O)CN(CCCn4ccnc4)C3=N)n2)cc1
→ 2	-7	103	103
- CC(C)c1ccc(NC(=O)COC(=O)/C=C/c2ccco2)cc1
→ -8	.	103	101
- N#Cc1ccc(S(=O)(=O)N2CCC(C(=O)O)CC2)cc1
→ -1	-4	108	100
- Cc1ccn(C(=S)Nc2ccccc2)n1
→ .	-12	101	102
- C=CCNC(=O)Nc1ccc(F)c(Cl)c1
→ 10	-20	102	104
- Cc1ccc(C(=O)Cn2c3c(sc2=N)CCCC3)cc1
→ 4	-10	104&101	101&98
- CC(c1ccccc1)n1c(-c2cccc(S(=O)(=O)N3CCOCC3)c2)n[nH]c1=S (configuration not stated)
→ 9	-33	95	101
- CCC(CC)C(=O)NC12CC3CC(CC(C3)C1)C2
→ -8	0	103	102
- Cc1ccccc1NS(=O)(=O)c1ccc(N2CCCC2=O)cc1
→ -17	-32	104	102
- Fc1c(F)c(F)c(Sc2nnc(-c3cccs3)n2CC2CCCO2)c(F)c1F (configuration not stated)
→ -15	-16	98	102
- COc1ccc(OCCC(=O)OCc2ccccc2)cc1
→ -9	.	105	102
- CCc1cc2c(=O)c(-c3nc4ccccc4n3C)c(C(C)C)oc2cc1O
→ 0	-2	102	103
- CN(C1=NC(=O)/C(=C\c2ccccc2Cl)S1)c1ccc(O)cc1
→ -6	-4	100	100
- O=c1oc2c3ccccc3oc(=O)c2c2ccccc12
→ 22	-3	99	99
- O=C(O)CCN1C(=O)/C(=C/c2ccccn2)SC1=S
→ 74*	-155	100	99
- Cc1ccc2nc3ccc(N4CC(C)CC(C)C4)nn3c(=O)c2c1 (configuration not stated)
→ -10	-1	102	101
- O=C(c1ccco1)N1CCC(c2nc3ccccc3s2)CC1
→ -6	-25	103	101
- Cc1c(Cl)cccc1NC(=O)CCn1cnc2ccccc2c1=O
→ -5	-42	99	100
- O=C(COc1ncnc2ccccc12)c1ccc2c(c1)OCCO2
→ 8	6	105	101
- CC(N)c1ccc2c(c1)CCCC2 (configuration not stated)
→ -2	-32	104	104
- Cc1ccc(-n2[nH]c(C)c(C=Nc3ccc(C)cn3)c2=O)cc1
→ -3	.	108	103
- COC(=O)c1cc(S(=O)(=O)N2CCC(Cc3ccccc3)CC2)oc1C
→ -7	-9	104	100
- CCCNC(=O)NC1CCN(c2nc(C)cc(C)n2)CC1
→ -35	3	102	100
- CCN(CC)C(=O)Cc1cccc(C)c1
→ 14	10	106	104
- COc1ncnc2c1sc1nc3c(cc12)COC(C)(C)C3
→ -236	-14	103	101
- COc1cc(C(=O)NC2CC2)ccc1OC(F)F
→ -8	-20	94	104
- CS(=O)(=O)c1nc2ccccc2s1
→ .	7	89*	89*
- N#CCCN(Cn1c2ccccc2c2ccccc21)c1ccccc1
→ 15	-62	105	104
- CN1CCN(C(=O)CSc2cc(=O)n(C)c3ccccc23)CC1
→ 49	-4	103	98
- COc1ccccc1NC(=O)Cc1cn2ccsc2n1
→ -7	.	103	101
- Cc1ccc2[nH]c(=O)c(N3CCOCC3)c(-c3ccccc3)c2c1
→ 8	-26	105	101
- CCC(=O)Nc1nnc(SCc2cc(=O)c(OC(=O)c3cccs3)co2)s1
→ 13	-9	109	104
- CCOC(=O)c1oc2ccccc2c1COC(=O)c1cccc(S(=O)(=O)N(C)C)c1
→ 7	5	107	102
- CCOC(=O)/C(C#N)=C(/N)c1cc2cc(Br)cc(Br)c2oc1=O
→ .	-14	114	108
- CSc1nc(C(=O)O)cc(=O)[nH]1
→ -9	-10	94	101

Limited to Polio RdRp inh, for three of the compounds above:
structure | Polio RdRp inh
CC(c1ccccc1)n1c(-c2cccc(S(=O)(=O)N3CCOCC3)c2)n[nH]c1=S (configuration not stated) | 101
CCC(CC)C(=O)NC12CC3CC(CC(C3)C1)C2 | 102
Cc1ccccc1NS(=O)(=O)c1ccc(N2CCCC2=O)cc1 | 102

The listing continues.
Under each structure: MbtI inh	Mtb MenB inh	Polio RdRp inh intensity	Polio RdRp inh
- Cn1cc(C2NC(=O)c3c(sc4c3CCCC4)N2)c2ccccc21 (configuration not stated)
→ 32	-16	104	102
- Cc1ccc2nc(N3CCCC3)nc(-c3ccccc3)c2c1
→ 28	4	100	101
- Cc1cccc(NC(=S)N(CCc2ccncc2)C2CCCCC2)c1
→ 16	-5	98	105
- CC(C)(C)n1ncc2c(=O)n(Cc3ccc(Cl)cc3)cnc21
→ 1	-5	103	103
- O=C(NCc1cccs1)C(NS(=O)(=O)c1cccc2nsnc12)c1ccccc1 (configuration not stated)
→ 3	-8	102	101
- Cc1cc(Br)c(-n2cccc2)c(Br)c1Cl
→ -9	-6	107	99
- CNC(=O)C1CCN(S(=O)(=O)c2ccccc2)CC1
→ -15	-40	100	102
- CCc1c(C)nc2c(C#N)c[nH]n2c1=O
→ -9	-25	105	102
- CC(=O)NC1=NN(c2ccccc2)C(=O)C1
→ -9	-7	102	99
- CC(N=C(NC#N)Nc1ccncc1)C(C)(C)C (configuration not stated)
→ 0&-8&-15	-4&-1&-1	100&99&103&101	101&100&99&102
- CC1(O)C2C3CC4C5C3C1C5C1(OCCO1)C42 (configuration not stated)
→ -3	2	110	100
- Cc1ccc(S(=O)(=O)N(CCC#N)C2CCCCC2)cc1
→ -6	-14	103	103
- CN(Cc1c(F)cccc1Cl)C(=O)C1CC(=O)N(CCc2ccccc2)C1 (configuration not stated)
→ 3	-2	106	101
- O=C(O)Cc1nc2ccccc2[nH]1
→ -8	-3	111	104
- Cc1ccc2nc(NC(=O)CNc3ccc(F)cc3)sc2c1
→ 18	.	108	102
- CCC(C(=O)OC)n1cnc2c(nnn2Cc2ccccc2F)c1=O (configuration not stated)
→ 13	7	104	100
- COc1ccc(-c2noc(N3CCC(C(=O)NCCN4CCc5ccccc5C4)CC3)n2)cc1
→ -8	4	106	101
